HSD17B inh: inhibitors of human HSD17B10 dehydrogenase | recombinant HSD17B10, NADH fluorescence kinetic; many of its hits are not listed in these tables | Potency, µM (titrated, usually from 57.1 µM), for inactives: at the highest dose activity change, negative = inhibition, hits mostly inhibitors | hit rate 7.6% among 75,000; active = well fitted inhibition curve with a large enough effect; inconclusive = small, poorly fitted or top-dose-only effect; inactive = no such curve, though single readings can be large or run the other way;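 note: the protocol describes HADH2 (HSD17B10) and not the HSD17B4 of the title; nearly all actives have a fitted effect of over 70% in size; most hits overshoot -100% by far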
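Enzyme plus compound, 15 min room temperature; substrate mix added (NAD+ 1 mM, beta-hydroxybutyryl-CoA 90 uM final); plates read kinetically for NADH fluorescence. HADH2 was His-tagged, E. coli-derived, 20 nM.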
An asterisk follows results filed as active; ? = inconclusive; [ ] = remark or other dose. % is set by controls: 0 for no effect and ±100 for the full control effect; potency is the fitted concentration of half-maximal effect. An excerpt; count on the stated rates, not on these rows.

SMILES,HSD17B inh
CC(=O)N(c1cccc(Br)c1)C1C=CS(=O)(=O)C1 (stereo not drawn),0%
C=CCn1c(C)cc(C(=O)COc2nncc3ccccc23)c1C,2%
O=C(CN1CCCCC1)Nc1cccc(-n2cnnn2)c1,12%
COCCOC(=O)C1=C(C)NC2=C(C(=O)CCC2)C1c1ccc(N(C)C)cc1 (stereo not drawn),-5%
OCC#Cc1cnc2ccccc2c1,1%
Fc1ccccc1COc1cccc(/C=N/n2cnnc2)c1,-9%
CCOc1ccccc1-n1c(SCC(N)=O)nnc1-c1ccc(O)cc1,4%
COc1ccc(CCn2c(=O)[nH]c3cc(C(=O)NCCCN4CCOCC4)ccc3c2=O)cc1OC,7%
O=C(N=C1SCC(=O)N1c1ccccc1Cl)c1ccco1,2%
CN(C(=O)CSc1nc2c(c(=O)[nH]1)CCCC2)C1CCCCC1,3%
O=P1(O)C=C(c2ccccc2)OC(c2ccccc2)=C1,1%
Cc1cc(C(=O)N2CCN(C/C=C/c3ccccc3)CC2)cs1,1%

Next part; it opens with the four that closed the last part.
SMILES,HSD17B inh
O=C(N=C1SCC(=O)N1c1ccccc1Cl)c1ccco1,2%
CN(C(=O)CSc1nc2c(c(=O)[nH]1)CCCC2)C1CCCCC1,3%
O=P1(O)C=C(c2ccccc2)OC(c2ccccc2)=C1,1%
Cc1cc(C(=O)N2CCN(C/C=C/c3ccccc3)CC2)cs1,1%
Cc1ccc(-c2nn3c(C)nnc3s2)cc1NC(=O)c1ccc(-c2cccc(Cl)c2)o1,150%[activator]
CCCc1ccc(C(=O)N2CCN(c3ccccc3OCC)CC2)cc1,32µM*
CCCCOc1ccc(C(=O)Nc2ccc(N3CCN(C)CC3)cc2)cc1,32%[activator]
Cc1ccc(N(CC(=O)NC2CC3CCC2C3)S(C)(=O)=O)cc1C (stereo not drawn),-1%
CCOC(=O)c1cc(NC(=O)SCC(=O)O)c(C)nc1C,-9%
CN(C(=O)COc1ccccc1)c1nnc(-c2cccnc2)s1,415%[activator]
Cc1ccc(C(=O)Nc2ccccc2N2CCOCC2)c(C)c1,4%
Cc1csc(Sc2nc3c(c(=O)[nH]c(=O)n3C)n2Cc2ccccc2Cl)n1,10%
CN(C)S(=O)(=O)N(CC(=O)Nc1ccccc1F)c1ccccc1,?
O=C(CCSc1nc(-c2ccco2)cc(C(F)(F)F)n1)N1CCN(c2ccccc2)CC1,2%
COc1ccccc1-c1nnc2sc(COc3ccc(Cl)cc3)nn12,-27%
O=C(NCCCc1ccccc1)c1ccncc1,8%
CCc1c(C)[nH]c(=S)c(C#N)c1C,?
Cc1c2cnn(-c3ccccc3)c(=O)c2c(C)n1CCCC(=O)N1CCN(c2ncccn2)CC1,-6%
CCCCOc1ccc(-c2ncc(C(=O)OCC)c(N)n2)cc1,32µM*
OCC1OC(n2cnc3c(NCc4ccco4)ncnc32)C(O)C1O (stereo not drawn),8%
NS(=O)(=O)c1ccc(CCNC(=O)C2CCCCN2S(=O)(=O)c2ccccc2)cc1 (stereo not drawn),6%
COc1ccccc1N1CC(C(=O)Nc2cccc(C(=O)O)c2)CC1=O (stereo not drawn),9%
CC(=O)c1c(C)[nH]c(C(=O)N2CCN(c3ncccn3)CC2)c1C,2%
CCCN(CCC)c1nc2ccccc2n2c(C)nnc12,-8%
O=C(Oc1cccc(C(=O)N2CCOCC2)c1)c1ccc(Br)cc1,5%
O=C(NCCNC[C@@H](O)COc1ccc(O)cc1)N1CCOCC1,8%
Nc1nc(SCc2ccc(Cl)cc2Cl)n[nH]1,-2%
COc1ccc2[nH]cc(CCNc3ccnc(-c4cccnc4)n3)c2c1,6%
CCc1cccc(NC(=O)c2ccc(Br)o2)c1,0%
COc1ccc(OC)c(NC(=O)CCCN2C(=O)C3C4C=CC(C4)C3C2=O)c1 (stereo not drawn),-17%
CC(C)[C@H](NC(=O)Nc1ccc(Oc2ccccc2)cc1)C(=O)O,-5%
COc1ccccc1OCCNC(=O)c1ccccc1C,16%
COCCCN1C(=O)C(=O)/C(=C(/O)c2ccc3c(c2)CC(C)O3)C1c1cccnc1 (stereo not drawn),-10%
CC(C)C(C)(C#N)NC(=O)CSc1nnc(-c2ccncc2)n1Cc1ccccc1 (stereo not drawn),2%
COCCNCC#CCOc1ccc(OC)cc1,13%
COc1ccc(CC(=O)Nc2ccc(-c3noc(COc4ccccc4C)n3)cc2)cc1,4%
O=C(O)CSc1ccc(N=C=S)cc1,-4%[11.4 µM]
O=C(c1ccc(-c2ccccc2)cc1)N1CCCC1,6%
CC1(C)CC(=O)C(C=Nc2ccncc2)=C(O)C1,-1%
COc1ccccc1C(=O)N1CCN(C(=O)c2ccncc2)CC1,13%
CC(C)Cn1c(=O)c(C(=O)NCc2ccccn2)c(O)c2ccccc21,-18%
COc1cccc(NS(=O)(=O)c2ccc(Br)s2)c1,-1%
COc1ccccc1-c1nnc(SCC(=O)Nc2nc(-c3ccccc3)cs2)n1C,-14%
CC(=O)OC1CC2C(C)(C)C(=O)C=C[C@]2(C)C2CC[C@@]3(C)C(c4ccoc4)OC(=O)C4O[C@@]43[C@]12C (stereo partly drawn),5%
O=C(Nc1ccc(Br)cc1F)c1ccc2c(c1)N(Cc1ccccc1)C(=O)CS2=O (stereo not drawn),-15%
O=C(CNS(=O)(=O)c1cccc(C(F)(F)F)c1)Nc1ccccc1F,-23%
CCOC(=O)c1cnc(-n2nc(C)cc2C)nc1N1CCOCC1,-5%
N#Cc1ccccc1Sc1ccccc1C(=O)OCc1nnc(-c2ccccc2)o1,-7%
COc1ccc2occ(C(=O)c3coc4ccc(O)c(CN(C)C)c34)c2c1,25µM*
CC1(C)NC(=O)N(CC(O)COc2ccc(-c3ccccc3)cc2)C1=O (stereo not drawn),8%
COc1ccc(CCNC(=O)COc2ccc(S(=O)(=O)N3CCOCC3)cc2)cc1,12%
Nc1nc(Cl)cc(NCCO)n1,-3%[11.4 µM]
CCCc1cc(=O)oc2cc(Oc3ncccn3)ccc12,32µM*
Cc1ccc(C(=O)c2nocc2C(=O)c2cccs2)cc1,1%
CCCC(=O)NCCc1cc2ccc(OC)cc2[nH]c1=O,?
O=C(Cc1cn2ccsc2n1)Nc1nc2c(s1)CCCC2,-2%
Cc1ccc(C)c(N2CCN(CCCNC(=O)Cn3cc4c(n3)CCCCC4)CC2)c1,5%
CCc1c(C)sc(NC(=O)c2cc(-c3cc(OC)ccc3OC)on2)c1C#N,-14%
O=C(c1cc(C(F)(F)F)cc(C(F)(F)F)c1)N1CCC2(CCCN(c3ccncc3)C2)CC1,4%
CCC1=C(OC(=O)N(CC)CC)N2C(=O)OC(=NCCOC)[C@]2(C)[C@H]2C1=CC[C@H]1C(=O)N(CC)C(=O)[C@H]12,-4%
CCn1c(=O)c2c(nc(SCc3ccccn3)n2C)n(C)c1=O,-7%
O=C(CCS(=O)(=O)Cc1ccccc1)NC1CCCCC1,-13%
O=C(C(c1ccccc1)c1ccccc1)N1CCN(CC(O)COc2ccccc2)CC1 (stereo not drawn),4%
COc1ccc(C(OC(=O)c2ccco2)C(=O)NCC2CCCO2)cc1 (stereo not drawn),6%

Individual results from above:
HSD17B inh, `CCc1c(C)sc(NC(=O)c2cc(-c3cc(OC)ccc3OC)on2)c1C#N` : -14%
HSD17B inh, `O=C(C(c1ccccc1)c1ccccc1)N1CCN(CC(O)COc2ccccc2)CC1` (stereo not drawn) : 4%
HSD17B inh, `O=C(Cc1cn2ccsc2n1)Nc1nc2c(s1)CCCC2` : -2%
HSD17B inh, `COc1ccc(C(OC(=O)c2ccco2)C(=O)NCC2CCCO2)cc1` (stereo not drawn) : 6%

The listing continues.
SMILES,HSD17B inh
COc1ccc(C2c3sc(=O)[nH]c3SC3C4CCC(C4)C23)cc1 (stereo not drawn),25µM*
CCOC(=O)N1CCN(C(=O)CS(=O)(=O)c2cn(Cc3cccc(F)c3)c3ccccc23)CC1,-11%
Cn1ncc2c1ncn1nc(CCc3ccccc3)nc21,0%
O=C1CC(Nc2ccc(N3CCOCC3)cc2)C(=O)N1c1cccc(C(F)(F)F)c1 (stereo not drawn),-6%
CC1(C)Cc2c(sc3c2c(=O)n(Cc2ccccc2)c2nncn32)CO1,13%
O=C1CN2C(=Nc3ccc(Cl)cc3C2c2ccccc2)CN1 (stereo not drawn),5%
COC(=O)CC1C(C)(C)C(=O)C2CC3=C(CC[C@]4(C)C3=CC(=O)OC4c3ccoc3)[C@@]1(C)C2=O (stereo partly drawn),-2%
Cc1cc2c(c(=O)n1CCN(C)C)C(c1ccncc1)C(C#N)=C(N)O2 (stereo not drawn),7%
CC[C@](N)(C(=O)O)C(C)C,6%[11.4 µM]
Cc1cc(NCCCN2CCOCC2)n2nc(C)c(-c3ccc(F)cc3)c2n1,?
CC1CCCC(C)N1NC(=O)c1ccc(Cl)c(S(N)(=O)=O)c1 (stereo not drawn),-1%
CCN1CCN(CCCNc2ncnc3nc[nH]c23)CC1,1%
Cc1noc(C)c1C(=O)N1CCC[C@@]2(CCN(Cc3ccccc3)C2)C1,2%
Cc1noc(NS(=O)(=O)c2ccc(NC(=O)CCC3CCCCC3)cc2)c1C,5%
CC1CC(C)CN(S(=O)(=O)c2ccc3c(c2)oc(=O)n3CC(=O)N2CCOCC2)C1 (stereo not drawn),1%
CCCn1c2ccccc2c2cc(C(=O)O)ccc21,-17%
O=C(O)C1(c2cccc(Cl)c2)CCC1,12%
c1cncc(-c2cc(NCc3cccs3)ncn2)c1,?
O=C(c1cccc(F)c1)N1CCc2ccccc21,-6%
COc1cccc(-c2cc(C(=O)Nc3cnn(Cc4ccccc4C)c3)no2)c1,272%[activator]
COc1ccc(NC(=O)CSc2nccn2-c2ccccc2)c(OC)c1,7%
CCCCNC(=O)OC(C)CNC(=O)Oc1cccc(C)c1 (stereo not drawn),1%
CCN1C(=O)c2ccccc2S(=O)c2ccc(C(=O)N3CCCCCC3)cc21 (stereo not drawn),8%
CCOC(=O)N1CCC(NC(=O)C2CCC(CNS(=O)(=O)c3ccc(OC)cc3)CC2)CC1 (stereo not drawn),13%

2 entries from above, with each value named:
> CC1CC(C)CN(S(=O)(=O)c2ccc3c(c2)oc(=O)n3CC(=O)N2CCOCC2)C1 (stereo not drawn)
  HSD17B inh: 1%

> COc1ccc(NC(=O)CSc2nccn2-c2ccccc2)c(OC)c1
  HSD17B inh: 7%

Additional entries follow:
SMILES,HSD17B inh
Fc1ccccc1OCCCCn1cncn1,2%
C/C(N)=C(/C#N)C(=O)CSc1n[nH]c(-c2ccccc2Br)n1,2%
O=C(NCc1ccc(Cl)c(Cl)c1)c1ccco1,5%
N#CCSc1nnc(COc2cccc3ccccc23)n1-c1cccc(Cl)c1,3%
O=C(CN1C(=O)C2C3C=CC(C3)C2C1=O)NCCC1=CCCCC1 (stereo not drawn),4%
COc1ccc(-c2csc(N(CCCN(C)C)C(=O)c3cccs3)n2)cc1,-3%
Cc1nn(C(=O)c2cc3sccc3[nH]2)c(C)c1C,-17%
Nc1cc(-c2ccc(Br)cc2)nn1S(=O)(=O)c1ccccc1,6%
CCOCc1nc(C)c(Cl)c(NS(=O)(=O)c2ccc(N)cc2)n1,11%
C=CCn1c(SCC(=O)Nc2c(C)cccc2C)nnc1-c1ccncc1,11%
Cc1c(C2N3CC4(C)CN2CC(C)(C3)C4=O)c2ccccc2n1C (stereo not drawn),3%
Cc1c(C(=O)OCC(C)C)[nH]c2c1C(=O)CC(c1ccco1)C2 (stereo not drawn),?
CCN(CC)CCOC(=O)C1(c2ccccc2)CCOCC1,-11%
Cc1nnc(NC(=O)C(C)Sc2nncn2C)s1 (stereo not drawn),12%
Cn1c(SCc2nc(-c3ccc(Cl)cc3)no2)nnc1-c1ccco1,-2%
CCCN(CCO)Cc1cccc(Br)c1,5%
CCOc1ccc(OCC)c(NC(=O)Cn2cccc2)c1,-8%
O=C(CNS(=O)(=O)c1ccc(Br)s1)Nc1ccc2c(c1)OCCO2,-2%
CC(C)Cc1nc2oc3c(NCc4cccnc4)ncnc3c2c2c1CCC2,16µM*
Cc1noc(C)c1C(=O)N1CCC2(CC1)CN(c1ncccn1)C2,?
COCCOCCn1c(CCCO)nc2ccccc21,-7%
CC(=O)Nc1ccc(Cc2ccc3[nH]c(=O)cc(C)c3c2)cc1,2%[11.4 µM]
O=C(O)C1CC(=O)N(CCc2c[nH]c3ccccc23)C1 (stereo not drawn),5%
CCOC(=O)c1cc2sccc2n1CC(=O)N1CCN(C(=O)c2ccco2)CC1,-4%
O=C(CCN1CCCCCC1)Nc1ccc(F)cc1,0%
COc1ccc(N2CCN(C(c3cccs3)c3nnnn3C3CCCC3)CC2)cc1 (stereo not drawn),1%
CCc1nc(OCCN(C)C)c2oc3ccccc3c2n1,1%
CCOc1ccc(-c2nnc3ccc(SCC(=O)N4CCN(c5ccccc5)CC4)nn23)cc1,3%
CCC(C(=O)c1ccc(O)cc1)c1ccccc1 (stereo not drawn),-5%
C=CCNC(=O)Cn1nc(-c2ccccc2)ccc1=O,0%
CC(C)Cc1c(O)nc(SCCN2CCOCC2)[nH]c1=O,3%
Cc1nn2c(N3CCN(C(=O)c4ccco4)CC3)cc(C(C)(C)C)nc2c1-c1ccccc1,11%

Screening results from PubChem BioAssay.
